Screening results (PubChem)
GALR2 ag: GALR2 receptor agonists, primary screen, cell-based | 0.48% of 140,000 active | Galanin receptor type 2 (Homo sapiens), O43603 | AID 803, 2007 | GALR2-expressing cells, agonist activation read-out | activation, %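 (tested at 5 µM)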;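 active means above mean plus 3 SD of all compounds, about 5% in these data, not always enough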;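 further: 0% = vehicle buffer wells and 100% = reference agonist at full effect; tested in CHO reporter cells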
Target sequence (O43603 whole entry, looked up): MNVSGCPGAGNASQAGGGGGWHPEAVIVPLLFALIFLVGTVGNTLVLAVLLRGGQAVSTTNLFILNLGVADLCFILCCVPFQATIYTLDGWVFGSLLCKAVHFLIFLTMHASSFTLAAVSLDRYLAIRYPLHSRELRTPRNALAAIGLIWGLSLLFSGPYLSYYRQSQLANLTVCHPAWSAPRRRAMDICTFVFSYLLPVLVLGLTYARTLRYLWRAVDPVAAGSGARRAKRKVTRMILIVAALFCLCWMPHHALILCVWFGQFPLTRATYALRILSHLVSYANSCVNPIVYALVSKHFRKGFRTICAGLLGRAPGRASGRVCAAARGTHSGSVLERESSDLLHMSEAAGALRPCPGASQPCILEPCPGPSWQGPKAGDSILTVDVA
PKD1 kinase inh: inhibitors of human PKD1 kinase, biochemical, fluorescence polarization; 0.056% of 200,000 active; Serine/threonine-protein kinase D1 (Homo sapiens), Q15139; PKD1 kinase fluorescence polarization assay; inhibition, %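 (about 10 µM by stock and volumes)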;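 active means inhibition of 50% or more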;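 further: controls were vehicle for no effect and a reference inhibitor for full effect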
RGS16-Gao HTS: modulators of RGS16 binding to Galphao, primary screen, biochemical, human proteins, multiplexed bead flow cytometry | Regulator of G-protein signaling 16 (Homo sapiens) + Guanine nucleotide-binding protein … | bead-based flow cytometry RGS16-Galphao binding, fluorescence; actives lie on both sides | binding response (% of control), % at 10 µM | 0.38% of 220,000 active;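 active means below 25% or above 175%, edge rows of some plates excepted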;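 further: Galphao activated by GDP with aluminum fluoride before binding; 100% = wells without compound and 0% = beads without RGS; some results beyond the cut were filed as inactive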
Target sequence (O15492 whole entry, looked up): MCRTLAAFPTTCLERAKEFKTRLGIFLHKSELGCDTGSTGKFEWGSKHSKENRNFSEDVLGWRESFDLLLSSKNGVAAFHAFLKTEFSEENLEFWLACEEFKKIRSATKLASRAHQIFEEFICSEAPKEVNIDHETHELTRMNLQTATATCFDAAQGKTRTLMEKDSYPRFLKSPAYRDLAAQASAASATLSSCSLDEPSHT
Target sequence (P09471 whole entry, looked up): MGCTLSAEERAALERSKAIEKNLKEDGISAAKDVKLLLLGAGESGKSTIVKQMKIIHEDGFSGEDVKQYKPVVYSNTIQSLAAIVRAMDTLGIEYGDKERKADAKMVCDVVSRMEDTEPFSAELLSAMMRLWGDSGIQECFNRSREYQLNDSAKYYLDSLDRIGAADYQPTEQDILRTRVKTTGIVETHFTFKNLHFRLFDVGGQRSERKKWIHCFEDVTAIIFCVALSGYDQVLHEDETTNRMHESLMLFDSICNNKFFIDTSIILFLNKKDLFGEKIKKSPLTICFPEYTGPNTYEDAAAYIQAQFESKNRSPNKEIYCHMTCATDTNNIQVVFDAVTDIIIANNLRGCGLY
HSV replic up: enhancers of HSV replication in host cells, fold increase, host cell viability; HSV replication augmentation in cells; 0.005% of 220,000 active; AID 1956, 2009; maximum fold increase;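 active means peak rise of 1.5-fold or more in the series; inconclusive means self-fluorescent or not available for retest; tested in PC3 cells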;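 further: first round at 10 µM; read as green reporter fluorescence; hits show the peak of a series up to 25 µM; 1 = signal of infected wells without compound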
INS promoter inh: inhibitors of insulin promoter-driven GFP, primary screen, imaging, TRM-6 cells (human fetal islet line), eGFP reporter, cell count; reporter expression induced with tamoxifen; inhibition, % at 2 µM; 0.9% of 130,000 active;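 active means inhibition above the mean plus 3 SD, with well images judged a real hit on visual review, cut at about 60% in these data, passing the limit was not always enough; inconclusive means inhibition over the cutoff but images rejected on review; inactive means inhibition not above the cutoff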
INS promoter inh cell count: second read-out of INS promoter inh, no call of its own (marks repeat the call); normalized cell count, %; measured here: cell count, toxicity; reference of the scale not given here;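 cells exposed to compound for 48 h; stained nuclei by imaging scaled within each plate; lower means fewer cells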
HSV replic up primary fold: further read-out of HSV replic up, marked with its call; fold increase; compound at 10 µM; measured here: primary screen fold increase 10 uM; tested in PC3 cells;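 GFP signal in the first replicate; 1 = infected wells without compound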
Numbers without * were called inactive; i = inactive; ? = inconclusive; · = not tested or not shown.

structure	GALR2 ag	PKD1 kinase inh	RGS16-Gao HTS	HSV replic up	HSV replic up primary fold	INS promoter inh	INS promoter inh cell count
Cc1cc(C(=O)NCCCc2ccccc2)no1	-2.5	3	113	i	1.1	-19	104
CC(C)(C)c1ccc(C(=O)Nc2ccc(Cl)cc2)cc1	0.3	-7	109	i	1	·	·
COc1ccc(N(Cc2cc3cc(OC)ccc3[nH]c2=O)S(C)(=O)=O)cc1	-0.9	-1	97	i	1.2	17	163
O=C(NC12CC3CC(CC(C3)C1)C2)N1CCC(O)CC1	-0.8	-6	101	i	0.8	-289	68
O=C(NC(=S)NNC(=O)c1cc2ccccc2cc1O)c1ccco1	·	-6	103	i	0.95	·	·
c1ccc2c(c1)OCCOCCOCCOCCOc1ccccc1OCCOCCOCCO2	-0.9	6	88	i	0.87	-161	147
COc1ccc(NC(=O)N2CCN(CCC#N)CC2)cc1	-1.8	-12	101	i	0.95	67	84
CC(C)(C)n1nnnc1C(c1ccc2ncccc2c1)N1CCSCC1 (centres undefined)	0.5	7	107	·	·	·	·
Cc1cccc(N2C(=S)NC3c4cc(Cl)ccc4OC2(C)C3C(=O)N(C)C)c1 (centres undefined)	·	1	96	i	1	·	·
O=C(O)C(Oc1ccc2c(-c3ccccc3)cc(=O)oc2c1)c1ccccc1 (centres undefined)	·	·	106	i	1	·	·
CNc1cncc(C(=O)O)c1	·	3	102	i	1.2	-6	138
CCn1c(SCC(=O)Nc2cccc(C)n2)nnc1-c1ccco1	-1.3	-2	62	i	1.1	39	98
CCOCCCNC(=S)N1CCN(Cc2ccc3c(c2)OCO3)CC1	·	-6	109	i	0.87	·	·
Cc1ccc(N=C2SC(C(=O)O)CC(=O)N2C)cc1C (centres undefined)	·	-6	95	i	0.99	43	103
O=C(CN(C(=O)CCC(=O)Nc1nccs1)c1ccc2c(c1)OCO2)NCC1CCCO1 (centres undefined)	-3.3	0	98	i	0.98	0	177
CC(=C/c1ccccc1)/C=N/n1cnnc1	-0.8	-1	95	i	0.88	-14	137
CCOc1ccc2nc(SCc3cccc(C)c3)nc(C)c2c1	-1.6	1	113	i	1.1	·	·
N/C(Cc1cccs1)=N\OC(=O)COc1ccccc1	0.1	3	101	i	0.99	-29	96
NS(=O)(=O)c1ccc(NC(=O)CCC2CCCCC2)cc1	1.4	15	103	i	0.85	-29	172
O=C(NNC(=O)c1ccc2nonc2c1)Nc1ccc(Cl)cc1	·	·	99	i	0.76	·	·

(list continues)
structure	GALR2 ag	PKD1 kinase inh	RGS16-Gao HTS	HSV replic up	HSV replic up primary fold	INS promoter inh	INS promoter inh cell count
N#C/C(=C\c1ccco1)C(=O)Nc1cccc2ncccc12	-0.8	8	102	?	·	-71	136
O=C(NCc1nc2ccccc2[nH]1)C1CCCCC1	·	-1	100	i	0.9	-25	63
CCOC(=O)C(NC(=O)CC)(N1CCc2ccccc2C1)C(F)(F)F (centres undefined)	1.6	0	100	i	1	-8	159
O=C(CCc1c[nH]c2ccccc12)NCc1ccc2c(c1)OCO2	-0.7	-3	95	i	0.94	62	83
Nc1cc(C(F)(F)F)ccc1Nc1ccccc1	·	-2	101	i	0.95	·	·
CC1=[N+](C)N(c2ccccc2)C(=O)C1N=Cc1c(Cl)cccc1Cl (centres undefined)	0.3	7	98	i	1.1	·	·
CCOC(=O)c1sc(NC(=O)C2CC2)nc1C	0.3	7	103	i	0.93	·	·
COc1ccccc1C(=O)Nc1c(C)n(C)n(-c2ccccc2)c1=O	-1.7	-5	88	i	0.96	·	·
COC(=O)C1=C(N)Oc2cc(C)[nH]c(=O)c2C1c1cccnc1 (centres undefined)	-2.1	-2	104	i	1.1	32	93
O=C(O)CN1C(=O)/C(=C/C=C/c2ccccc2)SC1=S	·	-9	109	i	1.1	-31	132
Cn1c(SCC(=O)Nc2ccccc2F)nnc1-c1cc2ccccc2o1	-1.1	-9	105	i	1	-9	124
CN(C)c1cc(=O)n2c(n1)SCCC2	-0.5	9	95	i	0.84	18	103
CC(CCc1ccccc1)NC(=O)C1CCN(c2nnc(-n3cccc3)s2)CC1 (centres undefined)	-1.2	-7	107	i	0.93	·	·
COc1ccccc1NC(=O)C1CCCN(c2cc(C)nc3ncnn23)C1 (centres undefined)	-3.5	5	115	i	0.99	-200	85
CC(C)NC(=O)c1onc(CSc2ccc(F)cc2)c1C(=O)O	-1.7	1	106	i	1.1	89*	43*
CCNC(=S)N(CCc1ccccc1C)Cc1cc2cc(OC)c(OC)cc2[nH]c1=O	0.3	3	97	i	0.9	-19	154
O=C(CN1CCSc2ccccc21)NCCCc1ccccc1	·	-1	97	i	0.91	-7	91
CC(=O)N1CCCN(Cc2cn(-c3cccc(C)c3)nc2-c2cccc(F)c2)CC1	·	·	88	i	0.85	·	·
CSc1cccc(NC(=S)N(Cc2ccccc2)Cc2ccccn2)c1	·	-9	100	i	1	-67	123
CC1(C(=O)N2CCN(c3ccccc3)CC2)CC1(Cl)Cl (centres undefined)	·	-7	103	i	0.88	·	·

Part of the list above in order of molecular weight, high to low:
structure	GALR2 ag	PKD1 kinase inh	RGS16-Gao HTS	HSV replic up	HSV replic up primary fold	INS promoter inh	INS promoter inh cell count
CSc1cccc(NC(=S)N(Cc2ccccc2)Cc2ccccn2)c1	·	-9	100	i	1	-67	123
CC1(C(=O)N2CCN(c3ccccc3)CC2)CC1(Cl)Cl (centres undefined)	·	-7	103	i	0.88	·	·
N#C/C(=C\c1ccco1)C(=O)Nc1cccc2ncccc12	-0.8	8	102	?	·	-71	136
O=C(NCc1nc2ccccc2[nH]1)C1CCCCC1	·	-1	100	i	0.9	-25	63

More records follow.
structure	GALR2 ag	PKD1 kinase inh	RGS16-Gao HTS	HSV replic up	HSV replic up primary fold	INS promoter inh	INS promoter inh cell count
COc1ccccc1NS(=O)(=O)c1cc(Cl)ccc1OC	-1.2	-2	218	i	1.2	-51	82
Cc1c(C(=O)Oc2cccc3cccnc23)cccc1[N+](=O)[O-]	·	6	95	i	0.81	-63	124
CCOC(=O)N1CCN(C(=O)C2CCN(S(=O)(=O)c3ccc(Br)s3)CC2)CC1	-0.8	-1	104	i	0.91	0	38
CCOC(=O)CSc1nn(C)c(=S)s1	0.5	8	104	i	0.88	·	·
CC(C)OC(=O)C1C(=O)CC(C)(O)C(C(=O)OC(C)C)C1c1ccc([N+](=O)[O-])cc1 (centres undefined)	·	0	105	i	1.1	·	·
O=C(CCC(=O)Nc1ccccc1Cl)NNC(=O)c1ccco1	-0.1	-5	101	i	0.99	·	·
COc1cc(C)nc(N2CCC(C(=O)NC3CCCCC3)CC2)n1	-0.9	3	107	i	0.92	-3	99
COC(=O)c1ccc(=O)n(Cc2ccc3c(c2)OCO3)c1	-0.8	-12	100	i	0.93	·	·
O=C(Nc1cnc2ccccc2c1)N1CCOCC1	-3.5	-5	101	i	0.8	·	·
COc1ccc2[nH]c(C)c(CCNC(=S)Nc3ccc(C)cc3)c2c1	·	-6	103	i	1	-14	159
Cc1sc2nc(C(C)Nc3ccccc3N3CCOCC3)[nH]c(=O)c2c1C (centres undefined)	-2.0	2	100	i	0.89	-36	73
COc1cccc(C2=NOC(C(=O)Nc3ccc(OC)c(OC)c3)C2)c1 (centres undefined)	-1.5	19	103	i	1	0	90
COn1c(SCc2cccnc2)nc2ccccc2c1=O	-1.4	-2	98	i	1.1	-21	43
CCOc1ccc(S(=O)(=O)Nc2ccncc2)c(C)c1C	·	0	116	i	0.97	·	·
Cc1cccc(-c2cc(C(=O)N3CCCc4ccccc43)c3ccccc3n2)c1	-1.4	1	103	i	1.1	6	136
c1ccc(COc2ccc(Nc3ncnc4nc[nH]c34)cc2)cc1	-0.1	4	105	i	0.85	·	·
Cc1ccsc1/C=N/n1c(-c2cc(-c3ccccc3)n[nH]2)n[nH]c1=S	·	·	102	i	1.2	·	·
CCOC(=O)c1cnc2ccccc2c1NCc1ccco1	·	·	97	i	0.93	·	·
CC(=O)[C@@]1(O)C(C)CC2C3C=C(C)C4=Cc5c(cnn5-c5ccccc5)C[C@]4(C)C3C(O)C[C@@]21C (some centres undefined)	·	·	101	i	0.61	·	·
O=C1CC(c2ccc(F)cc2)Sc2ccccc2N1 (centres undefined)	-2.2	2	103	i	0.96	6	146

Compound profiles, from the list above. Order of screens: GALR2 ag	PKD1 kinase inh	RGS16-Gao HTS	HSV replic up	HSV replic up primary fold	INS promoter inh	INS promoter inh cell count
Entry for c1ccc(COc2ccc(Nc3ncnc4nc[nH]c34)cc2)cc1 → -0.1	4	105	i	0.85	·	·
Entry for COn1c(SCc2cccnc2)nc2ccccc2c1=O → -1.4	-2	98	i	1.1	-21	43

(more compounds)
structure	GALR2 ag	PKD1 kinase inh	RGS16-Gao HTS	HSV replic up	HSV replic up primary fold	INS promoter inh	INS promoter inh cell count
Cc1ccccc1NC(=O)COC(=O)CCc1nc2ccccc2c(=O)[nH]1	·	-6	91	i	1	·	·
O=C(CSc1nnc(-c2cccs2)o1)N1CCCCC1	-1.4	3	106	i	0.96	·	·
COC(=O)c1ccc(-c2ccc(OC)c([C@H]3[C@H]4C=CC[C@@H](C)[C@@H]4C(=O)N3Cc3ccccc3)c2)cc1	·	·	99	i	0.97	·	·
CCN1CCN(C(c2cc(OC)ccc2OC)c2nnnn2Cc2ccccc2)CC1 (centres undefined)	-3.5	2	40	i	1.1	0	96
Cc1ccc(Cl)cc1N1CCN(S(=O)(=O)N2CCCCC2)CC1	·	6	98	i	0.97	·	·
COc1ccccc1NC(=O)/C(=N/OCc1ccc(C#N)cc1)C(C)=O	·	6	118	i	1.1	·	·
Cc1cccc(N2CCN(C(=O)C3(S(=O)(=O)c4ccc(Cl)cc4)CC3)CC2)c1C	·	0	99	i	0.96	-53	111
CCN(CC)c1ccc(/C=C2\CCC(/C=N/NC(=O)c3ccc(=O)n(C)c3)=C2N2CCOCC2)cc1	0.4	-13	106	?	·	·	·
N#C/C(=C\c1ccc(O)c(O)c1)C(=O)NCCCc1ccccc1	-2.2	-6	45	i	0.91	-18	62
CCCOc1ccc(C(=O)NCC2OCCc3ccccc32)cc1OC (centres undefined)	·	4	103	i	0.94	-69	74
CSc1nsc(SC)c1C(N)=O	·	·	101	i	1.1	·	·
O=S(=O)(c1cccc2cccnc12)N1CCc2ccccc21	-1.5	-9	99	i	0.99	·	·
O=C(NCCOC(=O)c1ccc(C(=O)OCCNC(=O)c2ccccc2)o1)c1ccccc1	-3.5	7	100	i	1.1	23	151
CC(=O)c1sc(N/N=C\c2ccc(C)cc2)nc1C	2.0	4	105	?	·	-7	108
O=C(O)c1cnc2[nH]c3ccccc3n2c1=O	·	·	100	i	0.84	·	·
CCc1ccccc1NC(=O)CN(C)C(=O)CSc1nnc(Nc2cccc(C)c2)s1	-0.1	-3	104	i	0.99	-56	145
CCCCCC(C(=O)O)C(C)CC(=O)NC1CCCCC1 (centres undefined)	1.1	-12	95	i	1	55	102
CCOC(=O)c1ccccc1NC(=O)CN(c1ccccc1OCC)S(C)(=O)=O	-2.1	-13	103	i	0.86	·	·
COc1cc(C(=O)NNC(=O)C2CC=CCC2C(=O)O)cc(OC)c1OC (centres undefined)	-1.1	4	105	i	0.49	·	·
O=C(NCc1n[nH]c(=S)n1-c1ccc(Br)cc1)c1ccc(S(=O)(=O)N2CCCC2)cc1	·	2	99	i	0.94	55	145

Next records.
structure	GALR2 ag	PKD1 kinase inh	RGS16-Gao HTS	HSV replic up	HSV replic up primary fold	INS promoter inh	INS promoter inh cell count
Cc1ccc(CN2CCN(Cc3cnn(-c4ccc(Cl)cc4)c3)CC2CCO)o1 (centres undefined)	·	6	100	i	1.1	·	·
Cc1nn(C)c(Cl)c1NC(=O)OCc1ccccc1	-2.0	-10	89	i	1	·	·
CC1=C(C(=O)Nc2ccccc2Cl)C(c2ccc(N(C)C)cc2)NC(=O)N1 (centres undefined)	-1.7	-5	100	?	·	-113	144
COc1ccc(Cl)cc1C(=O)Nc1cccc(-c2ccc3nncn3n2)c1	·	3	98	i	0.85	-17	130
O=C(O)c1ccc(/C=N/n2cc(-c3ccccc3)[nH]c2=S)cc1	·	·	92	i	1.1	·	·
